Beta apoptosis: blocks beta cell apoptosis; INS-1E cytokine-induced death, ATP luminescence, 48 h; percent of positive-control rescue, neutral wells zero; protection from apoptosis, % (no concentration beside the values); actives 0.8% (n = 300,000); AID 435005;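 active means all replicates at 75% or more, or half of them and the mean; inconclusive means half reach 75% but not the mean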;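 further: 0% = cytokine-treated negative control wells and 100% = positive control rescue; higher means more ATP so stronger rescue from cytokine killing; wells of about 40 µL received 100 nL stock; the first replicate is given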
FGF22 binding: binders of recombinant human FGF22 by thermal shift; Q9HCT0; calls only at 9.99 µM; SYPRO orange fluorescence; percent of sucrose octasulfate shift, DMSO zero; actives 1.5% (n = 340,000);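 active means melting point raised past a set limit in the mean and every replicate; inconclusive means no clear call; three in four hits are not shown here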
Target sequence (Q9HCT0 whole entry, looked up): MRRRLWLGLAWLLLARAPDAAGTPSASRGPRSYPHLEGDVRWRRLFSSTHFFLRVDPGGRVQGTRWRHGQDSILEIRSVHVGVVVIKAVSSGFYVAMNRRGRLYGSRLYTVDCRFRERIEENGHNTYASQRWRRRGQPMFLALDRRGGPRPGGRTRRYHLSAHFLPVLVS
Calb FLC: C. albicans growth modulation with fluconazole; growth inhibition, % (test concentration not listed); actives 0.57% (n = 300,000); C. albicans CaCi-2 (fluconazole-resistant clinical isolate) + fluconazole, Alamar Blue growth, 48 h;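 active means most replicates above 75%; inconclusive means exactly half above 75%; inactive means most below 75%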;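 further: all wells also contain fluconazole at 8 µg/ml as a sub-toxic cotreatment; 0% = median of DMSO wells and 100% = median of geldanamycin control wells; wells of about 8 µL received 7.5 nL stock; the first replicate is given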
ALR H2O2 inh: blocks human ALR sulfhydryl oxidase activity. purified ALR, DTT oxidation, H2O2 HRP-luminol luminescence. inhibition, % (no concentration beside the values). actives 3.8% (n = 290,000). AID 485317. P55789;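 active means mean and each replicate at 75% or more; inconclusive means only one of the two met; inactive means neither met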;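 further: stock transfer was 7.5 nL into about 7.5 µL; 0% = neutral wells and 100% = wells with inactivated enzyme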
Target sequence (P55789 whole entry, looked up): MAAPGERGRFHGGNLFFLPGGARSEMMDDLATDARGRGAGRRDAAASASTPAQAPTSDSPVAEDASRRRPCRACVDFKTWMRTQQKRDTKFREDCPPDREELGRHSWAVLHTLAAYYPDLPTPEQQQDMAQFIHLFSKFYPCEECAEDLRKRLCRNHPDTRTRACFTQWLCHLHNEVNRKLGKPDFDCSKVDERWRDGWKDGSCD
T cruzi inh: blocks replication of Trypanosoma cruzi; T. cruzi beta-gal in NIH3T3, luminescence, 90 h; inhibition, % (no concentration beside the values); actives 1.4% (n = 300,000);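 active means mean inhibition across valid replicates above about 55%, limit read from the data; inconclusive means mean below that limit but half or more replicates reach it; inactive means mean below it, under half of replicates reach it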;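 further: signal also drops with host cell toxicity which is not excluded here; 0% = plate median of DMSO wells and 100% = zero luminescence signal; higher percent means less beta-gal luminescence so fewer parasites; stock transfer was 50 nL into about 50 µL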
rRNA inh HTS: inhibitors of bacterial rRNA selective over humanized ribosomes | E. coli WT GFP vs humanized-ribosome RFP mutants, fluorescence, 24 h; stronger effect = lower value; DMSO median 0, no signal -100 | GFP signal change (wild-type ribosome), % (no concentration beside the values) | actives 1.6% (n = 350,000) | AID 720706;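 active means significant combined selectivity score with lowered wild-type GFP, culture density cut under 30%, mutant RFP and density less affected; inactive means any of these conditions unmet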; further: one replicate is shown; some compounds called inactive have numbers as strong as hits
RanGTP-Imp inh: disruptors of Ran-importin-beta complex formation – biochemical, FRET, CFP-Ran, YFP-importin-beta, homogeneous, primary screen. cell-free CFP-Ran/YFP-importin-beta FRET ratio. inhibition, % (concentration not given with the values). actives 1.1% (n = 300,000);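 active means most replicates above 15%; inconclusive means exactly half above 15%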;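 further: 0% = DMSO wells and 100% = Ran loaded with GDP instead of GTP; wells of about 40 µL received 100 nL stock; the first replicate is given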
AF4-AF9 inh: MLL-AF4/AF9 protein interaction inhibition | P42568 | AlphaScreen, biotin-AF4 peptide binding to FLAG-AF9 | inhibition, % at 10 µM | actives 0.47% (n = 350,000) | AID 651704;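 active means every replicate reaching a set inhibition limit, whatever the replicate mean, cut at about 25% in these data; inconclusive means mean inhibition reaches that limit but some replicates miss it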;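 further: 0% = plate neutral control median and 100% = total signal loss; the record names both 10 and 1 µM as test concentration; the first replicate is given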
Target sequence (P42568 whole entry, looked up): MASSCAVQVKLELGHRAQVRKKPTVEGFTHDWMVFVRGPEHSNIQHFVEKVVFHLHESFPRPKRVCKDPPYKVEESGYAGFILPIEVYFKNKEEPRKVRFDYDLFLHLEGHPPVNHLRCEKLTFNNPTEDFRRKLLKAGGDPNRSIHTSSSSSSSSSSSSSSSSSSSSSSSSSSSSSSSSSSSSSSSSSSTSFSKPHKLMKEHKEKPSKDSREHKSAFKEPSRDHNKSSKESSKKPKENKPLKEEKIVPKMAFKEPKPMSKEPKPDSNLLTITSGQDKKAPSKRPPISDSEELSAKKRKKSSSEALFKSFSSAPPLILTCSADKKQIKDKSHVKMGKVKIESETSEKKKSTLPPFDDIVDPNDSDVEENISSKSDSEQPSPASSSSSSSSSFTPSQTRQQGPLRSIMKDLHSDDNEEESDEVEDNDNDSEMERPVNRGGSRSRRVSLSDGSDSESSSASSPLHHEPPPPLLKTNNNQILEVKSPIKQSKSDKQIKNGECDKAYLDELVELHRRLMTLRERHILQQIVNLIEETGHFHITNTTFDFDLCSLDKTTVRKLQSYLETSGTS
rRNA inh HTS OD600: also measured in rRNA inh HTS; calls as there; OD600 change, %; measured here: OD600 growth;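 optical density of the mix in the first replicate; 0 = DMSO median and -100 = no signal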
rRNA inh HTS RFP: also measured in rRNA inh HTS; calls as there; RFP signal change, %; measured here: RFP humanized mutant strains;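 first replicate; 0 = DMSO median and -100 = no signal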
Starred values were filed as active, the others as inactive; i = inactive; ? = inconclusive; · = no result given. An excerpt; rates above refer to the full screens.

SMILES	Beta apoptosis	FGF22 binding	Calb FLC	ALR H2O2 inh	T cruzi inh	rRNA inh HTS	rRNA inh HTS OD600	rRNA inh HTS RFP	RanGTP-Imp inh	AF4-AF9 inh
O=C(NCCc1cccc(C(F)(F)F)c1)C1CCC(=O)N(Cc2ccc(Cl)cc2)C1 (centres undefined)	-1.7	i	1.3	-1.2	6.2	-2.8	-22.0	0.5	2.7	1.1
CCCCNC(=O)CSc1nc2ccccc2n1S(=O)(=O)c1ccc(Cl)cc1	-5.3	·	-6.2	-4.8	-11.2	·	·	·	3.4	·
CCN1C(=O)c2cccc3c(S(=O)(=O)N4CCNCC4)ccc1c23	1.0	i	·	-22.7	·	·	·	·	·	-2.3
CCc1ccc(Oc2nc([N+](=O)[O-])nn2C)cc1	-13.7	i	6.3	-24.1	66.5*	5.4	9.2	-0.8	-0.6	0.1
COC(=O)c1cc(NC(=O)CC2SC(=Nc3ccccc3)N(CCc3c[nH]c4ccccc34)C2=O)cc(C(=O)OC)c1 (centres undefined)	4.0	·	-6.3	10.8	67.2*	·	·	·	-1.5	·
Cc1nc2sc(C(c3ccco3)N3CCN(c4cccc(Cl)c4)CC3)c(O)n2n1 (centres undefined)	-1.9	·	-1.7	17.3	-1.9	-38.9*	-21.8*	-12.8*	7.5	·
COc1ccc(C(=O)Nc2c(N)nc(SCC(=O)N3CCCCCC3)[nH]c2=O)cc1OC	-0.1	i	-1.3	-6.8	4.1	2.5	11.2	-3.6	-3.2	-11.1
Cc1noc(C)c1COC(=O)CCc1nc2ccccc2s1	-0.4	·	4.4	-10.1	-3.1	·	·	·	1.9	·
CCOC(=O)Cc1cc(=O)n2[nH]c(C)c(-c3ccc(Cl)cc3)c2n1	5.8	i	-16.3	99.4*	-21.1	-50.5	-70.8	-0.3	3.3	-69.3
COc1cc2c(cc1O)[C@@H]1Cc3cc(OC)c(OC)cc3C(C2)N1C	1.9	i	-4.1	35.0	-14.2	3.8	5.6	-8.2	-0.1	-0.7
CN1CCN(c2ccc(NC(=O)c3ccccc3Br)cc2)CC1	-1.6	·	-15.3	8.5	6.3	·	·	·	-4.2	·
O=C(/C=C/c1ccco1)NC(=S)Nc1cccc([N+](=O)[O-])c1	-10.4	i	13.2	16.0	-11.4	8.4	2.8	-3.6	0.7	1.3
CCCc1c(C(=O)N/N=C/c2cccs2)nnn1-c1nonc1N	0.4	i	-9.2	-2.7	3.7	2.3	2.6	-4.1	0.2	-12.1
Cc1cc(NC(=O)CSc2nnc(COc3ccccc3)o2)no1	-1.1	·	-4.3	-3.8	-20.7	·	·	·	-2.8	·
O=C(COc1ccc(Br)cc1)OCc1nnc(-c2ccccc2)o1	-7.7	·	-2.3	-10.5	-12.3	·	·	·	-3.1	·

Next part, overlapping the part above by 4 compounds.
SMILES	Beta apoptosis	FGF22 binding	Calb FLC	ALR H2O2 inh	T cruzi inh	rRNA inh HTS	rRNA inh HTS OD600	rRNA inh HTS RFP	RanGTP-Imp inh	AF4-AF9 inh
O=C(/C=C/c1ccco1)NC(=S)Nc1cccc([N+](=O)[O-])c1	-10.4	i	13.2	16.0	-11.4	8.4	2.8	-3.6	0.7	1.3
CCCc1c(C(=O)N/N=C/c2cccs2)nnn1-c1nonc1N	0.4	i	-9.2	-2.7	3.7	2.3	2.6	-4.1	0.2	-12.1
Cc1cc(NC(=O)CSc2nnc(COc3ccccc3)o2)no1	-1.1	·	-4.3	-3.8	-20.7	·	·	·	-2.8	·
O=C(COc1ccc(Br)cc1)OCc1nnc(-c2ccccc2)o1	-7.7	·	-2.3	-10.5	-12.3	·	·	·	-3.1	·
CSCCC(NC(=O)c1ccc([N+](=O)[O-])cc1Cl)C(=O)OCC(=O)C12CC3CC(CC(C3)C1)C2 (centres undefined)	-5.3	i	-35.2	-16.6	3.6	4.5	6.4	2.0	2.6	4.2
COc1ccc(OC)c(CCNC(=O)Cn2cccc2C(=O)c2ccccc2C)c1	-15.5	i	3.4	-2.9	7.7	-11.6	-6.1	-2.0	0.0	2.5
COCC1CCN(C(=O)C2CCC(=O)N(Cc3cccc(C(F)(F)F)c3)C2)CC1 (centres undefined)	·	i	-4.3	·	-15.6	1.0	16.0	4.1	?	1.9
O=S(=O)(Oc1ccc(Cl)cc1)c1cccc2cccnc12	-2.3	i	6.5	-9.5	·	-25.1	-29.8	-4.6	-3.1	0.3
Cc1n[nH]c(C)c1S(=O)(=O)N1CCCC(C(=O)NCC2COc3ccccc3O2)C1 (centres undefined)	1.4	·	10.1	-22.7	3.9	·	·	·	-1.1	·
c1ccc(-n2nnc(-c3nccs3)n2)cc1	5.1	i	-7.8	94.5*	-6.9	1.9	8.4	-0.4	1.3	-1.5
Cc1ccc(/C=C2/Sc3ccccc3N(CC(=O)NCCCOC(C)C)C2=O)cc1	1.7	·	1.4	-16.3	9.5	·	·	·	-1.5	·
COc1ccc2oc(C(=O)Nc3nc4ccc(S(C)(=O)=O)cc4s3)c(C)c2c1	6.5	i	8.2	0.3	-5.8	6.7	10.1	-3.6	5.6	-12.9
CCO[C@H]1OC(C(=O)NCc2ccccc2)=C[C@@H](c2ccc(C(F)(F)F)cc2)[C@@H]1CCCO	4.6	i	0.8	2.4	10.1	10.1	0.8	18.2	1.9	-2.2
CCCc1cc(=O)oc2c(C)c3occ(C)c3cc12	8.9	·	-20.8	1.8	22.7	·	·	·	-0.8	·
O=C(N1CCCCC1)N1CCN(C(=O)N(c2ccccc2)c2ccccc2)CC1	8.5	i	1.2	-8.5	-4.3	-7.9	-3.8	2.3	-0.8	-0.4
CN1C(=O)Cc2cc(S(=O)(=O)N3CCN(c4cccc(C(F)(F)F)c4)CC3)ccc21	-2.5	i	21.2	-4.5	1.8	-1.4	-4.4	-1.5	1.1	3.8
O=S(=O)(Nc1ccc(N2CCCCC2)cc1)c1ccccc1F	15.4	i	-18.5	99.1*	33.2	·	·	·	-6.2	12.7
COC1=C(N2CCOCC2)C(=O)c2ccccc2C1=O	0.3	i	5.1	-53.9	6.6	7.1	5.6	-3.9	-3.2	2.7
O=C(CCc1ccccc1)NC(=S)Nc1ccc2c(c1)C(=O)OC2	-0.3	i	-4.4	-19.7	-2.5	16.6	8.9	5.0	-4.9	-1.6
O=S(=O)(Cc1nnnn1-c1ccc(Br)cc1)c1ccc(F)cc1	-2.5	i	8.3	-6.9	6.9	7.7	18.1	-1.4	-0.9	-1.1
O=C(Cc1cccc(C(F)(F)F)c1)NCc1ccc(Cl)cc1	-8.3	·	?	-1.2	-7.1	·	·	·	1.8	·
COc1cccc(OCCCN2CCN(S(=O)(=O)c3ccc(NC(C)=O)cc3)CC2)c1	7.3	·	?	-0.7	-3.0	·	·	·	-0.6	·
O=C(c1ccco1)N1CCN(Cc2ccc(Cl)cc2)CC1	1.7	·	0.0	-6.2	-8.4	·	·	·	5.3	·
CCOC(=O)Nc1nn(-c2ccc(C)cc2)c(=O)c(C#N)c1C	-15.3	i	-7.0	-22.0	-4.4	10.4	4.6	3.8	-1.4	-1.4
Cc1ccn2c(=O)nc(SCC(=O)Nc3ccc4c(c3)OCO4)nc2c1	0.9	i	-1.3	?	3.4	-4.3	-3.3	-0.2	1.5	3.2
CN(C)C(=O)C(OC(=O)c1ccc2ccccc2n1)c1ccccc1 (centres undefined)	·	i	-3.8	-0.2	-14.3	-0.1	5.0	0.4	-2.1	1.2
N#Cc1ccccc1S(=O)(=O)N1CCN(C(=O)C2CCCCC2)CC1	-0.8	i	·	-0.4	·	4.0	5.0	0.1	·	-8.9
CSc1ccc(S(=O)(=O)N2CCC(C(=O)NCc3ccccn3)CC2)cc1	-8.3	i	-5.2	33.8	?	0.8	2.6	0.0	0.7	0.1
Cc1c(NC(=O)c2ccccc2NC(=O)c2ccccc2)cccc1C(=O)O	-5.9	i	7.1	-3.2	-9.4	7.7	4.6	0.8	-2.9	-2.4
Cc1ccc(NC(=O)CSc2nc(N)c(-c3ccccc3)c(=O)[nH]2)cc1Cl	·	i	-1.9	98.2*	4.4	6.0	12.2	3.3	3.5	-2.9
Cc1cc(NC(=O)CSCC(=O)OCc2nnc(-c3ccc(F)cc3)o2)no1	-3.1	i	·	-3.7	·	·	·	·	·	0.8
O=C(NNC(=O)c1cc(O)c(O)c(O)c1)NC1CCCCC1	-17.9	·	-2.5	71.8	-22.7	·	·	·	5.8	·
Cc1sc(NC(=O)c2ccco2)c(CN2CCCCC2)c1C	-1.2	·	23.2	·	12.4	·	·	·	-2.2	·
N#Cc1c(-c2cccs2)nc(SCC(=O)c2ccc(Br)cc2)[nH]c1=O	0.6	i	-3.1	98.5*	6.3	·	·	·	?	1.1
COc1ccccc1CN1CC(C(=O)NCc2c(F)ccc(C)c2F)CCC1=O (centres undefined)	3.8	i	18.6	-12.3	22.9	3.3	2.9	2.0	1.2	0.2
O=C(CC12CC3CC(CC(Br)(C3)C1)C2)NCc1ccccc1	-6.8	i	-0.6	6.1	-18.2	13.6	3.2	0.2	4.5	0.1
Cc1ccc(/C=N\NC(=O)CNC(=O)C23CC4CC(CC(C4)C2)C3)o1	-2.2	i	-4.4	-3.4	5.2	-5.8	-3.0	2.0	-3.9	1.7
Cc1nc2cc(NC(=O)N3CC4(C)CC3CC(C)(C)C4)ccc2n1C (centres undefined)	-1.1	·	9.2	-13.0	5.4	·	·	·	0.1	·
Cc1cc(S(=O)(=O)N2CCCC2)c(C)s1	-1.5	·	14.7	-1.3	-7.2	·	·	·	0.6	·
CCCCn1c(CNC(C)=O)nc2ccccc21	-0.7	i	0.1	-3.8	-2.0	7.5	14.2	-0.4	0.6	1.3
Cc1ccc(-c2cc(N)n(Cc3ccc(Cl)cc3)n2)cc1	-13.1	·	-3.8	·	30.9	·	·	·	1.8	·
Cc1ccc(N2CCN(S(=O)(=O)c3c(C)nc4scc(C)n4c3=O)CC2)c(C)c1	2.3	i	1.4	-0.6	5.4	-36.9	-45.8	-4.2	4.7	-2.1
O=C(O)c1ccc(-n2ncc3c2/C(=C/c2cccc([N+](=O)[O-])c2)CC3)cc1	-11.9	i	7.5	4.5	0.9	3.8	-5.6	0.5	4.6	3.2
Cc1c(NC(=O)N(C)c2ccccc2)c(=O)n(-c2ccccc2)n1C	0.4	i	-2.6	·	-5.6	13.8	21.5	17.9	0.0	1.3
CNC(=O)CCn1nc(-c2ccc(Cl)cc2)c2ccccc2c1=O	0.0	·	-1.5	-2.5	3.5	·	·	·	?	·
CC(=O)c1cc(F)ccc1OCC(=O)N1CCN(c2ccc(F)cc2)CC1	0.2	i	?	19.0	-8.5	-1.6	-11.2	-1.0	-7.9	1.4
CC(NC(=S)NC(=O)c1cccs1)c1ccccc1 (centres undefined)	1.8	i	·	11.9	·	-54.3	-76.4	-7.6	·	7.6
